Screening results: PubChem BioAssay, National Center for Advancing Translational Sciences (NCATS)
AID923: qHTS Assay for Allosteric/Competitive Inhibitors of Caspase-1: Spectroscopic Profiling in AFC Spectral Region | compound fluorescence, AFC spectral region (405/520 nm); almost no hit is shown here | Potency, µM (doses to about 57.5 µM), inactives show top-dose fluorescence increase, actives largely listed as activators | actives 1.1% (n = 75,000) | AID 923, 2007; active means well fitted activation curve with a large enough effect; inconclusive means small, poorly fitted or top-dose-only effect;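 further: potency means the concentration at half of the fitted maximal effect; 0% is about no effect; scaled to a free AFC standard on each plate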
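Baseline compound fluorescence (AFC region, 405 nm ex/520 nm em) taken from the intercept of kinetic reads with 50 nM caspase-1 and 5 uM Ac-WEHD-AFC; normalized to an on-plate AFC standard curve; compounds titrated up to 57 uM.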
Resorufin autofl: compound fluoresces in the resorufin spectral region; actives 0.04% (n = 59,000); Compound fluorescence, resorufin region 547/598 nm, buffer; stronger effect = higher value; AID 588; max dye-equivalent concentration, M; active = above 10 nM dye equivalent; inconclusive = 1 to 10 nM; inactive = 1 nM or less; a few of its hits are not listed in these tables; further: highest value over a series up to 38 µM
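Compounds in 100 mM Tris, pH 8.0, incubated 15 min at room temperature, then fluorescence read at 547 nm excitation/598 nm emission. Signal converted to dye-equivalent concentration via an on-plate six-point resorufin standard curve, per compound concentration.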
A647 autofl: compound fluoresces in the A647 spectral region; 59,000 tested, under 10 active; Compound fluorescence, A647 channel (570/671 nm), Tris buffer; max dye-equivalent concentration, M; active means above 1 µM dye equivalent; inconclusive means 0.1 to 1 µM; inactive means 0.1 µM or less;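 further: values scaled relative to a standard on each plate; highest value over a series up to 38 µM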
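Compounds pinned into 100 mM Tris pH 8.0, 15 min at room temperature, then read with 570 nm excitation/671 nm emission filters. Fluorescence normalized to an on-plate six-point Alexa 647 standard curve, giving dye-equivalent concentration per compound concentration.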
TSHR agonist: TSH receptor (human) agonism | P16473 | HEK293-CNG-TSHR cells (CNG channel as cAMP sensor), membrane potential dye, cAMP | Potency, µM (highest dose often 57.1 µM), for inactives: top-dose activation, hits mostly activators | actives 0.48% (n = 73,000) | AID 926; active = well fitted activation curve of enough size with the parental cells flat; inconclusive = any curve in the parental cells; inactive = parental cells flat and receptor cells flat or falling; further: potency means the concentration at half of the fitted maximal effect; % of control where 0% means no effect; weak receptor curves with flat parental cells got no call and are not listed
Target sequence (P16473 whole entry, looked up): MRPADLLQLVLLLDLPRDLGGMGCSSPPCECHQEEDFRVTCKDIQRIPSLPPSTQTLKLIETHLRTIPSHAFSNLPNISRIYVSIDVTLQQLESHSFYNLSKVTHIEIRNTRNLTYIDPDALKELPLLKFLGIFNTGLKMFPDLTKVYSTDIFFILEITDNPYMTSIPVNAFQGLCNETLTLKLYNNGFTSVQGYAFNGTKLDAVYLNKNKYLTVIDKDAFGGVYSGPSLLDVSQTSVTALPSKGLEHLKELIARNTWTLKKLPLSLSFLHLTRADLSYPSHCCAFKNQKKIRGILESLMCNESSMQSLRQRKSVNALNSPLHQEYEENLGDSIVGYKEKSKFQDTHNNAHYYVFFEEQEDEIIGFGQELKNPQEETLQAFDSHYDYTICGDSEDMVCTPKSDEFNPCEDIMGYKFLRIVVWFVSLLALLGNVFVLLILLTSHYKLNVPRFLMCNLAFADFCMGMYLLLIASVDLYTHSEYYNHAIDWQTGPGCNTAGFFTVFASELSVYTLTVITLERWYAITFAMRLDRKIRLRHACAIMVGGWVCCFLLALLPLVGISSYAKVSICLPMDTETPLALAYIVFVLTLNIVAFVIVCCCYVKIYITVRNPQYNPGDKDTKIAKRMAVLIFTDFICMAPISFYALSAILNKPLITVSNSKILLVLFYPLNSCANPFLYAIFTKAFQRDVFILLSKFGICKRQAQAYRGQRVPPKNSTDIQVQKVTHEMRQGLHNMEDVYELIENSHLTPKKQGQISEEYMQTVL
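cAMP rise detected as CNG-channel membrane depolarization by fluorescent dye (emission 590 nm), 30 min after compound, following 60 min dye loading containing 100 uM RO 20-1724 at room temperature. Cells: TSHR/CNG HEK 293, with parental CNG HEK 293 as control.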
A488 autofl: compound fluoresces in the A488 spectral region. max dye equivalency, M. compound autofluorescence, A488 spectral region, dye equivalency; stronger effect = higher value. actives 0.1% (n = 59,000); active = above 10 nM dye equivalent; inconclusive = 1 to 10 nM; inactive = 1 nM or less; about half of its hits are not listed in these tables;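 further: highest value over a series up to 38 µM; compound alone in buffer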
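Read-out: relative fluorescence at 480/540 nm, expressed as Alexa 488 dye-equivalent concentration from a six-point A488 standard included per plate. Conditions: 100 mM Tris, pH 8.0; 15 min incubation, room temperature.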
Active calls of the source: *; i = inactive; ? = inconclusive; . = not tested or not shown; [ ] = remark or other dose. The list is partial, so the mix of outcomes need not match the whole.

The opening 4 entries (preview)
SMILES	AID923	Resorufin autofl	A647 autofl	TSHR agonist	A488 autofl
COC(=O)[C@@]1(Cc2ccc(F)cc2)[C@H]2c3cc(C(=O)N(C)C)n(Cc4c(CO)[nH]cc(C)c4=O)c3C[C@H]2CN1C(=O)c1ccccc1	-0.4%	.	.	-2.6%	.
COc1cccc(C(=O)c2sc(NC(C)C)nc2N)c1	.	i	2.2e-09	.	i
CCn1c(=O)c2c(n3cnnc13)-c1ccccc1CC21CCCCC1	2.7%	.	.	13.0%	.
O=C(Nc1cc(C(F)(F)F)ccc1N1CCOCC1)c1ccc2ccccc2n1	2.1%	i	1e-09	1.0%	i

The whole of this part, from the first entry:
SMILES	AID923	Resorufin autofl	A647 autofl	TSHR agonist	A488 autofl
COC(=O)[C@@]1(Cc2ccc(F)cc2)[C@H]2c3cc(C(=O)N(C)C)n(Cc4c(CO)[nH]cc(C)c4=O)c3C[C@H]2CN1C(=O)c1ccccc1	-0.4%	.	.	-2.6%	.
COc1cccc(C(=O)c2sc(NC(C)C)nc2N)c1	.	i	2.2e-09	.	i
CCn1c(=O)c2c(n3cnnc13)-c1ccccc1CC21CCCCC1	2.7%	.	.	13.0%	.
O=C(Nc1cc(C(F)(F)F)ccc1N1CCOCC1)c1ccc2ccccc2n1	2.1%	i	1e-09	1.0%	i
CCn1c(SCC(=O)c2ccc(Cl)cc2)nnc1C(C)C	3.0%	i	1.69e-08	0.3%	i
CCOc1ccccc1C(=O)Nc1ccc2nc(N3CCN(c4ncccn4)CC3)cc(C)c2c1	1.8%	i	3.74e-08	-11.7%	i
CC(C)(C)c1ccc(O)c(CN(Cc2cc(C(C)(C)C)ccc2O)c2ccccc2)c1	-2.2%[11.5 µM]	i	1.82e-08	6.7%[11.4 µM]	i
CCOCCCNCC(=O)NC1(C)C2CCC(C2)C1(C)C (stereo not drawn)	1.4%	i	1.4e-08	16.9%	i
Cc1nc2ccc3nc(NC(=O)C4COc5ccccc5O4)sc3c2s1 (stereo not drawn)	-3.4%	.	.	-3.3%	.
CCc1c(C)nc(SC)n(CC#N)c1=O	-0.2%	i	1.63e-08	0.5%	i
COc1ccc(-c2cc(-n3c(C(F)(F)F)nc4ccccc43)n(CCC#N)n2)cc1	2.3%	i	3.1e-08	?	i
O=C(Cc1coc2cc3c(cc12)CCC3)OCc1cc(=O)n2c(n1)sc1ccccc12	-0.8%	i	3.36e-08	12.1%	i
O=C(CCn1c(=O)sc2ccccc21)NCc1cccs1	-0.6%	i	1.67e-08	11.7%	i
COCCn1c(SCC(=O)N2CCCc3ccccc32)nnc1-c1ccco1	-0.1%	i	1e-09	2.2%	i
CN(C)C(=O)c1ccc(-c2cncnc2NC2CCNCC2)cc1	0.0%	i	2.96e-08	?	i
CCCc1cc(=O)[nH]c(SCc2ccc(C#N)cc2)n1	0.5%	i	1.21e-08	27.3%	i
N[C@@H](CCCCO)C(=O)O	-2.3%[11.5 µM]	i	1e-09	2.4%[11.4 µM]	i
Cc1ccc(N(C(=O)C2CCCO2)C2C=CS(=O)(=O)C2)cc1Cl (stereo not drawn)	0.3%	i	3.48e-08	1.5%[11.4 µM]	i
CCn1c(SCC(=O)Nc2ccc3c(c2)c2ccccc2n3CC)nnc1-c1cnccn1	-2.9%	i	1e-09	-6.3%	i
CCCN1CC23C=CC(O2)C(C(=O)O)C3C1=O (stereo not drawn)	-0.7%	.	.	3.1%	.
COc1ccccc1CCn1c(=O)c(CCc2ccccc2)nc2cncnc21	4.7%	i	1e-09	?	i
Oc1ccccc1C(Sc1nc2ccccc2s1)Sc1nc2ccccc2s1	-2.3%[11.5 µM]	i	4.17e-08	5.9%[11.4 µM]	i
COCCN1C(=O)N(c2cccc(C)c2)C(=O)C1CC(=O)Nc1ccc(F)cc1 (stereo not drawn)	0.8%	i	1e-09	-7.3%	i
Nc1c(C(=O)NCc2ccco2)sc2nc3c(cc12)C(=O)CCC3	1.1%	i	1e-09	-3.4%	i
CC(C)(CN1CCCCC1)NS(=O)(=O)c1ccc(Cl)cc1	-0.3%	i	1e-09	?	i
SMILES	AID923	Resorufin autofl	A647 autofl	TSHR agonist	A488 autofl
Cc1c(C#N)c2ccccc2n1CC(=O)N1CCc2ccccc2C1	-1.1%	.	.	?	.
CCCCn1c(SCC(=O)N2CCOCC2)nnc1-c1cccs1	1.0%	i	4.01e-08	8.7%	i
Cc1ccccc1-c1cc(N2CCNCC2)ncn1	9.9%	i	1e-09	20.0%	i
Cc1ccc(NC(=O)OCC(F)(F)C(F)F)cc1NC(=O)OCC(F)(F)C(F)F	-3.1%	.	.	-14.6%[11.4 µM]	.
Clc1ccccc1N1CCN(c2ncnc3nc[nH]c23)CC1	3.1%	.	.	-9.2%	.
CN1CCN(c2nc(-c3ccc4c(c3)OCO4)nc3ccccc23)CC1	-1.4%	i	3.6e-08	28.2%	i
O=C(O)CCn1c(C(=O)O)cc2sccc21	4.6%	i	1e-09	1.6%	i
Cc1ccc(NC(=O)C2C3CC4OC(=O)C2C4C3)cc1Cl (stereo not drawn)	0.2%	i	8.5e-09	-6.3%	i
CC1(C)CC(=O)C=C(NCC2CCCO2)C1 (stereo not drawn)	0.7%	i	1e-09	?	i
Cc1ccc(Cn2nnc3c(=O)[nH]c(C4CCN(S(=O)(=O)c5ccccc5)CC4)nc32)cc1	-1.5%	i	1.62e-08	24.3%	i
CCOC(=O)Cn1c(=NC(=O)CSC(C)=O)sc2ccccc21	-2.6%	.	.	-13.1%	.
O=C(CN(C(=O)CNS(=O)(=O)c1ccccc1)c1ccc2c(c1)OCCO2)NC1CCCCC1	1.8%	i	2.3e-08	2.5%	i
O=C(O)CC12CSc3[nH]c(=O)sc3C1c1ccccc1OC2=O (stereo not drawn)	1.0%	.	.	0.6%[11.4 µM]	.
O=C(CNS(=O)(=O)c1ccc(C(=O)N2CCCCC2)cc1)N1CCCCC1	-2.8%	i	9.7e-09	3.0%	i
CCN(CC)S(=O)(=O)c1ccc2nnn(OCC(=O)Nc3cccc(C#N)c3)c2c1	1.6%	i	1e-09	7.6%	i
CCOC(=O)CSc1nnc(CNC(=O)c2ccc(OC)cc2)n1-c1ccc(OC)cc1	0.5%	i	1.1e-09	1.1%	i
CN(C)[C@H]1C(=O)C(C(=O)NCN2CCCC2)=C(O)[C@]2(O)C(=O)C3=C(O)c4c(O)cccc4[C@](C)(O)[C@H]3C[C@H]12	-1.1%[11.5 µM]	i	3.58e-08	-5.2%[11.4 µM]	i
CC(C)CCN(C)C1CCN(S(=O)(=O)c2cccc(C(F)(F)F)c2)CC1	1.3%	i	1e-09	10.4%	i
Cc1csc2nc(=O)c3ccccc3n12	0.8%	i	1.5e-08	7.5%	i
COc1ccc(-n2c(=O)c(-c3ccc(F)c(F)c3)nc3cncnc32)cc1	1.8%	i	2.7e-08	?	i
O=C(C1CCN(S(=O)(=O)c2ccc(-n3cnnn3)cc2)CC1)N1CCN(c2ccccc2)CC1	-2.6%	i	8.4e-09	?	i
C=CCn1c(N2CCCC2)nc2c1c(=O)[nH]c(=O)n2C	2.0%	i	1e-09	-5.1%	i
COc1ccc(N2C(=O)C3CCCN3C2c2cccs2)cc1 (stereo not drawn)	0.1%	.	.	8.8%	.
CCOC(=O)CN(C(=O)CSc1nnc(COc2ccc(OC)cc2)n1C)c1ccccc1	-0.3%	i	1e-09	-48.9%[inhibitor]	i
CCCn1c(C)nc2c(N(CCN(CC)CC)CCN(CC)CC)nc(C)nc21	1.3%	.	.	?	.
SMILES	AID923	Resorufin autofl	A647 autofl	TSHR agonist	A488 autofl
CC1CN=C(c2cccn2Cc2ccc(F)cc2Cl)O1 (stereo not drawn)	-0.6%	i	1e-09	27.4%	i
Cc1cccnc1NC(=O)c1ccc2nc(N)sc2c1	2.4%	i	5.97e-08	2.0%	i
COc1ccc(-c2nc(CS(=O)CC(=O)NCc3ccc4c(c3)OCO4)c(C)o2)cc1 (stereo not drawn)	-0.9%	.	.	-14.5%	.
COC(=O)N1CCC2(CC1)CN(C(=O)Nc1cccc(F)c1)C2	-1.4%	i	6.2e-09	0.5%	i
COc1ccc(NC(=O)c2ccc(COc3ccccc3Br)o2)cc1OC	1.1%	i	1.05e-08	4.0%	i
C=CCn1c(SCc2nc3ccccc3c(=O)[nH]2)nnc1-c1cc2cc(Cl)ccc2o1	-0.6%	i	2.06e-08	?	i
COC(=O)CS	3.0%	.	.	?	.
COc1ccc(C(O)c2coc3ccc(O)c(CN(C)C)c23)cc1 (stereo not drawn)	-0.7%	i	2.38e-08	9.0%	i
CCc1ccc(NC(=O)Cn2c(=O)oc3cc(S(=O)(=O)N4CCOCC4)ccc32)cc1	2.2%	.	.	-6.0%	.
CCc1nc2ccccc2n(CC)c1=O	-1.9%	i	1.86e-08	1.6%[11.4 µM]	i
COC(=O)[C@@]1(Cc2ccc(F)cc2)[C@H]2c3cc(C(=O)N4CCCC4)n(Cc4ccccn4)c3C[C@H]2CN1C(=O)c1ccccc1	-2.1%	.	.	?	.
CC(=O)Nc1ccc(S(=O)(=O)Nc2ccc(S(=O)(=O)N3CCCCCC3)cc2)cc1	0.2%	i	1e-09	-3.7%	i
COc1ccccc1-c1c(C)nn2c(N3CCCCCC3)cc(C)nc12	-0.5%	.	.	?	.
CCOC(=O)c1ccc(NC(=O)CCC(CC)C(=O)O)cc1 (stereo not drawn)	.	i	1.06e-08	.	i
CCOC(=O)N1CCN(C(=O)C2CCN(c3ncnc4c3sc3cccc(F)c34)CC2)CC1	4.6%	i	1e-09	10.2%	i
C=CCn1c(SCC(=O)Nc2cc(NC(C)=O)ccc2OC)nnc1-c1cccnc1	-1.5%	i	6.1e-09	-3.7%	i
N#Cc1c(-c2ccco2)cc(C2CC2)nc1SCC(=O)c1ccccc1	-1.0%	i	2.21e-08	?	i
Cc1cc(=O)[nH]c(SCc2nc3ncccn3c2Br)n1	-0.2%	i	1e-09	0.3%	i
COC(=O)c1ccccc1NC(=O)CN1CCC(NC(=O)c2ccccc2C)CC1	0.6%	i	3.3e-09	.	i
N#Cc1ccc(COC(=O)c2ccc3c(=O)[nH]c(CN4CCOCC4)nc3c2)cc1	-1.2%	i	2.75e-08	2.5%[11.4 µM]	i
CCN(CC)S(=O)(=O)c1ccc2[nH]cc(C(=O)NCCN3CCCCC3C)c(=O)c2c1 (stereo not drawn)	-1.7%	i	2.4e-09	-3.0%	i
COc1ccc(-n2c(Cc3cccn3C)nnc2SCC(=O)Nc2ccc(F)cc2)cc1	-3.0%	.	.	-4.6%	.
Cc1ccc(-c2cc(C(F)(F)F)nn2-c2ccc(S(N)(=O)=O)cc2)cc1	-4.0%	.	.	?	.
Cc1oc2cc(OC(C)C(=O)O)ccc2c(=O)c1Oc1ccccc1 (stereo not drawn)	0.0%	i	2.13e-08	-6.4%	i
CCOc1ccc(/C(O)=C2/C(=O)C(=O)N(CCOCCO)C2c2ccccc2)cc1 (stereo not drawn)	-0.7%	i	3.52e-08	-6.3%	i
SMILES	AID923	Resorufin autofl	A647 autofl	TSHR agonist	A488 autofl
CCOC(=O)N1CCN(CC(=O)Nc2c(C(=O)OC)[nH]c3ccccc23)CC1	-0.9%	i	5e-09	13.3%	i
COCCn1c(C)cc(C(=O)CSc2ccc(NC(C)=O)cc2)c1C	-1.2%	i	8.9e-09	1.0%	i
Cc1nc2ncnn2c(N2CCN(C(=O)Cc3cccs3)CC2)c1C	0.6%	i	8.8e-09	1.2%	i
CC(C)(C)C(=O)/C=C(\N)c1ccccn1	2.5%	.	.	0.3%	.
Cc1cnc(C)c(N2CCC(C(=O)NCc3cccs3)CC2)n1	1.2%	i	9e-09	-0.2%	i
O=C(NCc1ccco1)c1ccc(=O)[nH]n1	.	i	1.3e-09	.	i
CCOc1ccccc1NC(=O)C1CCN(S(=O)(=O)c2c(C)noc2C)CC1	-2.2%	i	1e-09	9.8%	i
